# Screening data deposited in PubChem by National Center for Advancing Translational Sciences (NCATS).
# miR-21 reporter = raises the signal of a miR-21 reporter. Potency, µM (highest dose often 38.3 µM), for the others: top-dose reporter change, positive = more light. HeLa miR-21 FLuc reporter, luciferase, 48 h. 340,000 tested, under 10 active. AID 2288; active = well fitted rising curve with a large enough effect; inconclusive = small, poorly fitted or top-dose-only effect; inactive = no such curve, though single readings can be large or run the other way;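 note: % of control where 0% means no effect; miR-21 action dims this reporter so a rising signal means less miR-21 action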
#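 Compounds were titrated across several concentrations (up to approximately 40 uM) and incubated 48 hours with HeLa miR-21-FLuc reporter cells (miR-21 target sequence downstream of FLuc, endogenous miR-21). Readout was firefly luciferase luminescence after lytic detection reagent.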
# GLA inh pH 4.5 = inhibitors of human alpha-galactosidase A at pH 4.5. activity change, negative = inhibition, % at 105 µM. AID 1467. P06280. purified enzyme, 4-MU-alpha-Gal fluorescence, pH 4.5. 230,000 tested, under 10 active; inconclusive = small, poorly fitted or top-dose-only inhibition, or a rising curve; inactive = flat fitted curve, though single readings scatter; no compound was filed as active;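 note: 0% = full activity with enzyme and -100% = basal without enzyme; dose as in the result columns while the protocol names 77 µM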
# Target sequence (P06280 whole entry, looked up): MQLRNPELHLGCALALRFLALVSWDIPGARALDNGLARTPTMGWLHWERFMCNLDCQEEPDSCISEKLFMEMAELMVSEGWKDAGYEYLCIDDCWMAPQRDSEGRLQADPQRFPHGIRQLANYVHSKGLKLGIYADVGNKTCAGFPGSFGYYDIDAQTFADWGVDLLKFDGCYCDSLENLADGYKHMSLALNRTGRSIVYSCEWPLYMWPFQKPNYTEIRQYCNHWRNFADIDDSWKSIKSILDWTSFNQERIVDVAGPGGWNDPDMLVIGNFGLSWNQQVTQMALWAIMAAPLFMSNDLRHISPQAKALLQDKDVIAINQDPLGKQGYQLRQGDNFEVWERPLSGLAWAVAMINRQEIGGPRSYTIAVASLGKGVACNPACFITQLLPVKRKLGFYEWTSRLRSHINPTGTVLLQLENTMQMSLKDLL
# Rango complex inh = prevents formation of the Rango-importin beta complex; Q14974; Rango CFP/YFP FRET sensor + importin beta, 45 min; Potency, µM (doses to about 92.2 µM), for the others: at the highest dose inhibition of complex formation; actives 0.031% (n = 340,000); active = rising FRET ratio curve, often small or poorly fitted; inconclusive = mostly compound fluorescence or quenching in the first reads; inactive = flat curves in all reads;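 note: potency is the fitted concentration of half-maximal effect; 0% = DMSO wells and 100% = buffer wells lacking importin beta; nearly all actives have a fitted effect of over 15% in size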
#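 FRET biosensor (snurportin 1 IBB flanked by EYFP and cerulean), 50 nM, with compound 5 min, then 0.125 microM importin beta in PBS, 1 mM DTT, 0.02% Tween-20, 0.1% BSA. CFP/YFP ratio read after 45 min at room temperature; pre-read flags interference.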
# Rango release inh = inhibition of RanGTP-driven Rango-importin beta dissociation; O95149+P62826; Biochemical FRET Rango-importin beta, RanGTP-induced dissociation; actives 0.071% (n = 340,000); Potency, µM (doses to about 46.1 µM), inactives show top-dose activity change, negative = inhibition; active means falling FRET ratio curve, often poorly fitted, with flat reads before Ran was added; inconclusive means other falling curves, or compound fluorescence or quenching; inactive means flat or rising ratio curve;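 note: potency is the fitted concentration of half-maximal effect; % of control where 0% means no effect; nearly all actives have a fitted effect of over 45% in size; -100% = wells without RanGTP and RCC1; the record marks most hits as doubtful in a second field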
#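 Recombinant Rango FRET biosensor (EYFP–snurportin 1 IBB–cerulean CFP10) at 0.1 uM premixed with 0.25 uM importin beta in PBS, 1 mM DTT, 0.02% Tween-20, 0.1% BSA. Compound added 5 min; RanGTP-RCC1 (0.6 uM Ran, 2 mM GTP, 0.2 uM RCC1) then triggers release, read at 45 min.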
# * = called active by the depositor; ? = inconclusive; · = not tested or not shown. An excerpt; the hit share may differ from the screen's.
SMILES,miR-21 reporter,GLA inh pH 4.5,Rango complex inh,Rango release inh
CC(=O)c1cccc(NC(=O)c2c(C)nn(-c3ccccc3)c2Cl)c1,-21%,7,-2.6%,-1%
CCOC(=O)c1ccccc1NC(=O)C1CC(=O)N(C(C)(C)C)C1 (centres undefined),-6%,·,-0.1%,-1%
N#CC1=C(N)Oc2n[nH]c(-c3ccccc3)c2C1c1cccc(OC(=O)N2CCOCC2)c1 (centres undefined),8%,1,-6.1%,7%
C/C(CC(=O)NC12CC3CC(CC(C3)C1)C2)=N\NC(=O)c1ccc(C)cc1,-16%,-16,1.3%,3%
CCc1nnc(NS(=O)(=O)c2ccc(NC(=O)/C=C/c3ccc(F)cc3)cc2)s1,-7%,-21,?,?
CCOC(=O)c1ccc(NC(=S)N(CCN(C)C)C(C)c2ccncc2)cc1 (centres undefined),-1%,·,-0.3%,1%
NC(=O)COC(=O)c1ccc(-c2ccc(O)cc2)cc1,-18%,2,1.4%,-22%
O=C(COC(=O)c1cc(S(=O)(=O)N2CCOCC2)c(Cl)cc1Cl)NCc1ccco1,·,·,-1.7%,?
O=C(CCSc1ccccc1)NCCSCc1ccco1,-3%,-4,3.7%,-11%
CCOc1ccccc1N(CC(=O)NCCSc1ccccn1)S(=O)(=O)c1ccccc1,6%,·,-3.4%,2%
O=C(CSc1nc2sc3c(c2c(=O)n1-c1ccccc1)CCCC3)N/N=C/c1ccccc1C(=O)O,0%,·,0.0%,1%
N#CC1(C#N)C2=C(CCCC2)NC(c2ccccc2)C1(C#N)C#N (centres undefined),-12%,1,·,·
O=C(CCCN1C(=O)/C(=C\c2ccccc2)SC1=S)Nc1ccc(O)cc1C(=O)O,2%,·,7.2%,-10%
O=C(CCCCCn1c(=S)[nH]c2ccc(N3CCOCC3)cc2c1=O)NCc1cccc(Cl)c1,0%,0,?,4.6µM*
CN(C)S(=O)(=O)c1ccc(C(=O)OCC(=O)Nc2sc3c(c2C#N)CCCCC3)cc1,1%,0,0.2%,-4%
COc1ccc(-n2nnnc2SCC(=O)Nc2ccc3c(c2)OCCO3)cc1OC,-5%,-2,-1.1%,-2%
CC(C)C[C@H](NC(=O)N1CC(=O)Nc2ccccc21)C(=O)N1CCC[C@H]1C(=O)O,0%,·,4.6%,0%
O=C(CCn1nnc2ccccc21)Nc1nnc(COc2ccc(F)cc2)s1,-8%,7,-3.0%,-11%
NS(=O)(=O)c1ccc(CCNC(=O)Cc2ccc(Cl)cc2)cc1,0%,·,2.6%,-9%
Clc1cccc2c3c([nH]c12)CCNC3,0%,·,0.3%,-11%
CCNC(=S)N1C2CCC1CC(NC(=O)Nc1ccc(C(=O)OCC)cc1)C2 (centres undefined),8%,2,2.3%,10%
COc1ccc(N(C(=O)c2ccco2)C(C(=O)NC2CCCC2)c2ccc(N(C)C)cc2)cc1 (centres undefined),-8%,-3,6.0%,-7%
COc1ccc(NC(=O)C2CCCN(S(=O)(=O)c3cccnc3)C2)cc1OC (centres undefined),-1%,-3,4.3%,14%
O=C(COC(=O)Cc1ccc(Cl)cc1)Nc1ccccc1-c1ccccc1,-7%,-9,-0.4%,23%
O=C(CSC1=NCCN1)Nc1ccccc1[N+](=O)[O-],10%,4,-1.0%,-2%
COc1ccc(N2C(=O)C(Cl)=C(N3CCCC(C)C3)C2=O)cc1 (centres undefined),0%,-2,4.9%,-2%
N#C/C(=C\c1ccc(O)c(O)c1)C(=O)N1CCCC1,-20%,-13,?,?
O=C(COC(=O)C1CC2C=CC1C2)Nc1ccccc1F (centres undefined),-33%,2,-2.9%,-2%
CCOC(=O)c1c(C)[nH]c(C(=O)CSc2ccc(Cl)cc2)c1C,-61%,-5,1.4%,-15%
Cc1noc(/C=C/N(C)C)c1S(=O)(=O)N1CCCC(C(=O)N2CCCCC2)C1 (centres undefined),0%,11,?,-7%
CCOc1ccc(CNC(=S)N/N=C/c2ccc(OC)c(OC)c2)cc1,-16%,-10,2.5%,2%
CN(C)CCCNC(=O)c1ccccn1,1%,4,-0.1%,7%
CC1Cc2ccccc2N1S(=O)(=O)c1cccc(C(=O)NC2CC2)c1 (centres undefined),1%,-9,-0.4%,-19%
CCc1ccc2c(CN3CCN(S(=O)(=O)c4cccs4)CC3)cc(=O)oc2c1,-5%,3,7.3%,-19%
Cc1ccc(-n2ncc3c(SCC(=O)NNC(=O)c4ccco4)ncnc32)cc1,-16%,7,-1.1%,12%
CCSC1=C(C#N)C(c2cccc(OC)c2)CC(=O)N1 (centres undefined),-5%,0,-0.3%,-9%
COc1ccccc1N1C[C@@H]2C[C@@H](c3ccco3)N3CCC[C@@]23C1=O,0%,-6,-0.7%,-6%
CN(C)C(=O)c1cc(S(=O)(=O)N(C)C)c(Cl)cc1N1CCCC1,-7%,8,-3.1%,-16%
Cc1cc(C)cc(OCC(=O)OC(C)C(=O)Nc2ccc(Cl)cn2)c1 (centres undefined),·,·,0.0%,-6%
C#CCNc1nc(CC)nc2c1nnn2Cc1ccccc1F,-12%,6,-0.6%,-8%
Cc1ccccc1C(=O)OCC(=O)NCc1ccco1,·,·,2.4%,9%
CC(=O)CC(c1ccccc1)S(=O)(=O)c1ccc(C)cc1 (centres undefined),-1%,-5,1.7%,2%
COc1ccc(OC)c(NC(=O)CCN2C(=O)c3ccccc3C2=O)c1,-11%,·,-1.9%,-1%
COc1ccc(-c2c[n+]3c(n2-c2ccc(C)cc2)CCCCC3)cc1,?,-17,1.2%,-6%
Cc1ccc(CNCCCSc2nc(C)cc(C)n2)cc1,1%,·,-2.6%,20%
COc1cc2c(cc1OC)CN(c1ccc(C(N)=O)cc1[N+](=O)[O-])CC2,-7%,·,-1.5%,-12%
COCCNC(=S)N/N=C(\C)c1ccc2cc(OC)ccc2c1,-15%,-11,-1.2%,-8%
Clc1ccccc1CSc1nnc(-c2ccco2)c(-c2ccco2)n1,-4%,3,-6.0%,-14%
O=C(O)CNC(=O)c1ccc(NC(=O)/C(=C/c2ccccc2)NC(=O)c2ccco2)cc1,-2%,·,0.7%,-10%
COC(CNC(=O)CN1C(=O)COc2ccc(S(=O)(=O)N3CCOCC3)cc21)OC,3%,·,-1.4%,-2%

# (list continues)
SMILES,miR-21 reporter,GLA inh pH 4.5,Rango complex inh,Rango release inh
O=C1OCCN1C(=O)[C@H]1[C@H](c2ccccc2)C(c2cccc(Cl)c2)=NN1c1ccc(Br)cc1,·,?,?,?
O=C(NCCc1cccs1)C1CC(c2ccccc2[N+](=O)[O-])=NO1 (centres undefined),-46%,-2,-4.2%,11%
Cc1cc(C(=O)Oc2cccnc2)ccc1[N+](=O)[O-],-8%,-1,0.6%,6%
COc1ccc(CSc2nnnn2C)cc1[N+](=O)[O-],-6%,3,0.3%,-13%
C=CCC[C@@H](Cc1ccc(F)cc1)C(=O)OC[C@@H]1CCCN1C(=O)[C@H](CC=C)CC(=O)N[C@H](CO)Cc1ccccc1,·,·,-4.5%,-12%
COc1cc(NC(=O)C(C)Oc2ccccc2)c(C(=O)O)cc1OC (centres undefined),-2%,-5,-0.4%,-1%
Cc1cc(CN(C)C(=O)c2cc(COc3ccc(F)cc3Cl)on2)n[nH]1,-60%,-6,-5.7%,-14%
Cc1ccc(NC(=O)NC2CCCCCCC2)cc1,-49%,·,1.5%,-7%
Cc1cc(C)c[n+](C2=C([O-])c3ccccc3C(=O)/C2=N\S(=O)(=O)c2cccs2)c1,0%,-10,-1.0%,30%
N#CCC(=O)Nc1ccc(C(=O)OCC(=O)N(Cc2ccccc2)C2CCS(=O)(=O)C2)cc1 (centres undefined),3%,4,?,-8%
O=S(=O)(NCc1ccccn1)c1cccc2nsnc12,-3%,4,-9.8%,0%
COc1ccc(N(C)C(=O)C2CCCN2S(=O)(=O)c2cccc3nsnc23)cc1 (centres undefined),-6%,·,-1.8%,0%
O=C(Cn1cnc2ccccc2c1=O)NCC(=O)N1CCN(Cc2ccc3c(c2)OCO3)CC1,-1%,-3,0.9%,3%
O=C(CCNC(=O)N1CC(=O)Nc2ccccc21)Nc1ccc(Br)cc1F,-5%,·,-1.8%,2%
CC(=O)N/C(N)=N/c1nc2cc(C)ccc2o1,-48%,18,-0.3%,-6%
Cc1cc(=O)oc2ccc(OCC(=O)NCc3ccco3)cc12,-5%,0,-3.6%,0%
COc1ccc(S(=O)(=O)N2CCN(C/C=C/c3ccccc3)CC2)cc1F,1%,·,1.4%,-16%
CC(=O)c1ccc(OCc2cc(C(=O)N(C)C(C)c3ccon3)no2)cc1 (centres undefined),·,·,-2.9%,-2%
CCc1ccccc1NC(=O)CN(C)C(=O)COC(=O)c1cccnc1Cl,·,·,-2.6%,7%
Cc1cccc(C(=O)Nc2cccc(C(=O)N/N=C/c3ccc4c(c3)OCO4)c2)c1,-1%,·,0.4%,-9%
CCOc1ccc(S(=O)(=O)N2CCN(C(=O)c3cc(C4CC4)nn3-c3ccccc3)CC2)cc1,·,·,-2.5%,-5%
Nc1c(C(=O)Nc2ccccc2)sc2nc(-c3ccco3)ccc12,-21%,2,?,?
O=C(NC(=S)Nc1ccc(N2CCCCC2)c(Cl)c1)c1ccc2c(c1)OCCO2,2%,-5,-1.8%,-3%
CCOC(=O)c1ccc(Oc2cc(C)nc(SC)n2)cc1,21%,8,2.8%,0%
CCOC(=O)/C(=C\c1ccc(N2CCC(c3ccccc3)=N2)cc1)C(C)=O,·,·,?,?
Cc1ccc(S(=O)(=O)Nc2cccc(C(=O)N3CCC(C(N)=O)CC3)c2)cc1,·,·,?,-8%
COc1cc(OC)cc(C(=O)NCC2CCCN(Cc3cccc(C(C)=O)c3)C2)c1 (centres undefined),6%,·,-0.8%,-1%
C/C(=N\NC(=O)c1cccc(O)c1)c1ccc(NC(=O)Cc2ccccc2)cc1,-32%,·,0.5%,-5%
CCn1cc(C(=O)NCc2ccccc2OC)c(=O)c2cc(S(=O)(=O)N(C)C)ccc21,-4%,-3,-4.0%,-9%
O=C(Nc1cccc(S(=O)(=O)N2CCCCC2)c1)c1cnccn1,-6%,-5,-3.0%,-4%
COc1ccc(NC(=O)c2cc(S(=O)(=O)N3CCCCC3)ccc2OC)cc1,-7%,·,5.2%,2%
CC(=O)c1ccc(N2CCN(C(=O)CCc3ccccc3)CC2)cc1,1%,·,1.1%,17%
C=CCN(C(=O)CN1CCCCC1)c1nc(-c2ccccc2)cs1,-33%,·,0.3%,-17%
CC(C)Oc1ccc(C(=O)Nc2nnc(C3=COCCO3)o2)cc1,·,·,-0.6%,-7%
CCOc1ccc(NS(=O)(=O)c2ccc(OC)c(NC(=O)c3ccc4c(c3)OCCO4)c2)cc1,-14%,10,1.7%,12%
C=CCN1CCN(C(c2ccc(Cl)cc2)c2nnnn2CCc2ccc(OC)c(OC)c2)CC1 (centres undefined),-13%,7,-1.0%,-11%
O=C(NCCN1CCOCC1)c1cc(Cl)ccc1Cl,-2%,·,-2.1%,14%
